BasE inh = inhibitors of Acinetobacter baumannii siderophore enzyme BasE; purified BasE, fluorescence polarization binding displacement; inhibition, % (test concentration not listed); actives 0.1% (n = 84,000); AID 485350;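 active = both replicates above 25% with normal brightness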;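 also: 0% = negative plate control signal and 100% = positive plate control signal; stock transfer was 100 nL into about 30 µL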
KSHV LANA nucl = LANA-nucleosome interaction inhibition | FITC-LANA1-23 / chicken nucleosome fluorescence polarization; active compounds read low | z-score (test concentration not listed) | actives 0.3% (n = 51,000) | AID 720717;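 active = both repeat wells score below -2 in polarization z-score versus plate sample wells, excluding overly bright wells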;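 also: 100 nL library stock added to about 30 µL; numbers are from one replicate; some results filed as inactive read as strong as hits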
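Material: Purified chicken nucleosomes with FITC-labelled LANA N-terminal peptide (1-23) | Reagent: 50 nM FITC-LANA1-23 probe | Medium: TEN-BT buffer, pH 7.5 | Times: 10–45 min incubation at room temperature | Detection: Fluorescence polarization | Replication: Duplicates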
Active calls of the source: *; x = not tested or not shown. The list is partial, so the mix of outcomes need not match the whole.

No.	structure	KSHV LANA nucl	BasE inh
1	CCCN1CC=C2C(C#N)=C(N)C(C#N)(C#N)C(c3cccc(OC)c3)C2C1 (stereo not given)	-0.46	11
2	CC(=O)NC(C)C(=O)N1CCc2ccccc2C1 (stereo not given)	x	0.5
3	Cc1ccc2[nH]cc(NC(=O)NCCO)c(=O)c2c1	-0.62	2.2
4	Cc1cc2cc(CCNC(=O)c3c(-c4ccccc4Cl)noc3C)c(=O)[nH]c2cc1C	4.4	-3.3
5	Cc1onc(-c2ccccc2)c1-c1nnc(-c2ccccc2C(F)(F)F)o1	0.68	-1.1
6	CC(C)(C)C(=O)Cn1nnc(-c2ccc(C(F)(F)F)cc2)n1	0.42	-3.1
7	O=C(Nc1ccccc1)c1cc2n(n1)C(C(F)(F)F)CC(c1ccco1)N2 (stereo not given)	-0.78	-1.5
8	CC(C)(C)CC(=O)NC(=S)Nc1ccccc1	0.15	2.1
9	N#Cc1c(OCC(F)(F)F)ccc(S(=O)(=O)N2CCCC2)c1OCC(F)(F)F	x	0.2
10	CCCCNS(=O)(=O)c1cccs1	x	2.7
11	O=C(CC1CCCC1)N1CCCC(c2nc3c(nnn3Cc3ccccc3)c(=O)[nH]2)C1 (stereo not given)	0.36	2.0
12	NC(=S)NNc1ccc(Cl)c(Cl)c1	-0.21	-10
13	N#CCc1nc(-c2ccc(C(F)(F)F)cc2)n[nH]1	-1.7	-0.8
14	NC(=O)c1ccc(CC(=O)c2ccc(Cl)cc2)cc1	x	0.3
15	O=C(/C=C/c1c(Cl)nc2ccccn12)N1CCCCC1	x	1.0

Three of the entries above in order of the KSHV LANA nucl value, highest first.
item | canonical_smiles | KSHV LANA nucl
8 | CC(C)(C)CC(=O)NC(=S)Nc1ccccc1 | 0.15
1 | CCCN1CC=C2C(C#N)=C(N)C(C#N)(C#N)C(c3cccc(OC)c3)C2C1 (stereo not given) | -0.46
7 | O=C(Nc1ccccc1)c1cc2n(n1)C(C(F)(F)F)CC(c1ccco1)N2 (stereo not given) | -0.78

More results follow:
No.	structure	KSHV LANA nucl	BasE inh
16	Cc1cc(-c2noc(-c3cccc(F)c3)n2)c2ccccc2n1	0.4	-0.9
17	O=C1c2ccccc2OCC12COC(c1ccccc1)OC2 (stereo not given)	-1.2	x
18	Cc1ccc(-n2nc3c(c2NC(=O)Cc2ccccc2)CSC3)c(C)c1	x	-0.1
19	Cc1ccc(CCn2c(C)c(C)c3ccccc32)cn1	x	1.3
20	O=S1(=O)CCC(Cc2nc3ccccc3[nH]2)C1 (stereo not given)	x	2.9
21	COc1ccc(OCCSc2nnc(C(F)(F)F)n2N)cc1	x	0.0
22	O=S(=O)(/N=C/c1cccnc1)c1cccs1	1.6	-2.4
23	CS(=O)(=O)Nc1ccc(/C(N)=N/O)cc1	-0.64	0.5
24	COCCn1c(C)cc(/C=C2\C(=O)Nc3cc(Cl)ccc32)c1C	x	1.4
25	CCNS(=O)(=O)c1ccc(NC(=O)Nc2cccc(Cl)c2Cl)cc1	-0.41	-0.3
26	CCCCCC(O)c1cccc(OCc2ccc3ccccc3n2)c1 (stereo not given)	0.19	-1.4
27	CCNC(=S)Nc1ccc(N2CCCCC2)cc1	x	-2.9
28	O=C(O)CC1(CC(=O)Nc2ccc(Br)cc2)CCCC1	x	-0.3
29	COc1ccc(C2N3CC(C)(C)CN23)cc1OC (stereo not given)	-0.54	3.4
30	CC1CCN(C(=O)CN2C(=O)c3ccccc3S2(=O)=O)CC1	0.23	-1.2
31	CN(C)CC(=O)Nc1ccc(Cl)cc1	-0.23	0.8
32	Cc1cccc(Oc2ccc(N3C(=O)C4C5C=CC(C5)C4(C)C3=O)cc2)c1C (stereo not given)	x	0.2
33	COCCNS(=O)(=O)c1ccc2c(c1)Cc1cc(S(=O)(=O)NCCOC)ccc1-2	1.1	-0.4
34	COc1ccccc1C(=O)Nc1cnn(Cc2ccccc2C)c1	1.4	-5.2
35	CCOC(=O)c1sc(NC(=O)CSc2nnc(Cn3nnc4ccccc43)n2C)nc1C	-0.45	-1.1
36	COc1ccc(-c2ccc(=O)[nH]n2)cc1OC	-1.1	0.1
37	Cc1ccc(OC(C)C(=O)N(C)c2ccccc2)cc1 (stereo not given)	-1.2	0.3
38	CC1CCCN(Cc2cn3c(-c4cccc(Br)c4)nnc3s2)C1 (stereo not given)	2.6	-1.4
39	COc1ccccc1NC(=O)C1CC(=O)NC(=Nc2ccc(C)cc2)S1 (stereo not given)	0.41	-2.6
40	c1cc2c(cc1C1CCCN1)OCCCO2 (stereo not given)	x	2.4
41	CN(C)S(=O)(=O)c1cccc(CSc2ncnc3c2cnn3-c2ccccc2)c1	x	0.5
42	CCCCN(CC)C(=O)Cn1cnc2onc(-c3ccc(F)cc3)c2c1=O	x	10
43	O=C(Nc1cccc(C(F)(F)F)c1)c1c(Cl)nc2sccn12	x	2.3
44	Cc1ccc(S(=O)(=O)NCC(=O)N2CCC(C)CC2)cc1	x	0.2
45	c1ccc(CN2CN(C3CCCCC3)Cn3c2nc2ccccc23)cc1	x	0.0

Arranged by count of non-hydrogen atoms (highest first): some entries from above
No.	structure	KSHV LANA nucl	BasE inh
38	CC1CCCN(Cc2cn3c(-c4cccc(Br)c4)nnc3s2)C1 (stereo not given)	2.6	-1.4
21	COc1ccc(OCCSc2nnc(C(F)(F)F)n2N)cc1	x	0.0
13	N#CCc1nc(-c2ccc(C(F)(F)F)cc2)n[nH]1	-1.7	-0.8
8	CC(C)(C)CC(=O)NC(=S)Nc1ccccc1	0.15	2.1

Additional results
No.	structure	KSHV LANA nucl	BasE inh
46	N=c1ccccn1CC(O)c1ccccc1 (stereo not given)	x	1.7
47	CN1C(=O)CC(c2ccccc2)C1=O (stereo not given)	-0.11	0.9
48	O=C(NCCCN1CCOCC1)c1cc(-c2ccco2)nc2ccccc12	x	0.3
49	CCN(C(=O)/C=C/c1ccccc1)c1nnc(Cn2nnc3ccccc32)s1	-0.39	-1.3
50	CCCNC(=O)C1CC(c2cccc(OC)c2)=NO1 (stereo not given)	-0.96	-0.7
51	CN(Cc1nc2ccccc2c(=O)[nH]1)C(C(=O)NC(N)=O)c1ccccc1 (stereo not given)	x	1.8
52	CCN(CC)C(=O)/C(=C\c1ccc(OC)c(OC)c1)n1ccccc1=O	-1.1	-3.4
53	OC(Cn1ccc2ccccc21)Cn1c(Cc2ccccc2)nc2ccccc21 (stereo not given)	-0.98	0.9
54	CCOC(=O)c1c(C)c(C#N)c(NC(=O)c2ccccc2)n1-c1ccccc1	-0.11	1.7
55	O=C(COC(=O)c1ccc(F)c(S(=O)(=O)N2CCOCC2)c1)NCc1ccc2c(c1)OCO2	x	0.7
56	Cc1cc(C)cc(NC(=O)C(Sc2nnc(C)n2C2CC2)c2ccccc2)c1 (stereo not given)	x	-1.4
57	CCC1C=CCC2C(=O)N(CC(=O)NCCC3=CCCCC3)C(=O)C12 (stereo not given)	-0.45	0.9
58	CCc1nc2cccnc2n1-c1ccc(CC(=O)NCCN2CCOCC2)cc1	-0.49	2.2
59	COc1cc(C)c(CN2CCN(C(=O)c3cc(S(=O)(=O)N(C)C)ccc3Cl)CC2)cc1OC	x	2.3
60	NS(=O)(=O)c1ccc(NC(=O)COC(=O)c2cc3ccccc3o2)cc1	0.19	-0.3
61	CCCNC(=O)COc1ccc2ccc(=O)oc2c1	x	3.8
62	Nc1ccc(C2CCCc3nonc32)c2nonc12 (stereo not given)	-0.47	-9.9
63	CC1CC(C)CN(S(=O)(=O)c2cccc(C(=O)OCCN3CCCC3=O)c2)C1 (stereo not given)	x	-3.0
64	NC(=O)C1CCN(C(=O)CC2(CC(=O)O)CCCCC2)CC1	x	-0.3
65	Cc1cc(C)c(C#N)c(SCC(=O)N2c3ccccc3NC(=O)C2(C)C)n1	x	-2.5
66	CCCCNC(=O)c1ccc(C#N)cc1	x	-0.7
67	N#CC1=C(N)OC2=C(CCc3ccccc32)C1c1ccccc1 (stereo not given)	-0.87	-1.1
68	COc1ccccc1C(=O)Nc1ccc2oc(-c3ccc4ccccc4c3)nc2c1	x	-2.3
69	C(=N\Nc1nc2ccccc2s1)/c1ccc2ncccc2c1	x	0.8
70	NNc1cc(C(F)(F)F)nc2ccccc12	0.093	0.6
71	CCCC1CCC(C(=O)Nn2cnc3ccccc3c2=O)CC1 (stereo not given)	0.034	-1.5
72	CC(=O)Nc1cc(-c2ccc(Cl)cc2)[nH]n1	0.48	-0.6
73	CC(=O)Nc1ccc(Cl)cc1-c1nc2ccc(C)cc2[nH]c1=O	0.66	-0.6
74	O/N=C/c1ccc(OCc2ccccc2)cc1	-0.21	0.6
75	COc1ccc(-c2noc(CC(=O)N(C)c3cc(C)ccc3C)n2)cc1	-0.017	-1.2
76	Cc1nc2ccccc2n1C(C)c1ccccc1 (stereo not given)	0.12	-4.3
77	CC1CCc2c(sc(NC(=O)C3CCCN3S(=O)(=O)c3cccs3)c2C(N)=O)C1 (stereo not given)	0.98	-2.3
78	CC(C)CC(=O)NC(=S)Nc1ccc(NC(=O)c2ccco2)cc1	-0.75	3.4
79	CCc1ccc(NC(=O)CC2C(=O)N(c3ccccc3)C(=O)N2C2CCCC2)cc1 (stereo not given)	-0.76	-1.2
80	O=C(c1ccc(Cl)cc1Cl)N1CCN(C(=O)C2CCCCC2)CC1	-0.044	0.7
81	CN(C)c1ccc(C=NCC(O)CN=Cc2ccc(N(C)C)cc2)cc1 (stereo not given)	-0.77	1.4
82	CCOC(=O)N1CCC(n2c(=S)[nH]c3ccccc3c2=O)CC1	-0.99	2.0
83	CCN(CC)c1ccc(/C=C/c2cc(=O)cc(C)o2)cc1	3.4	6.8
84	CN(C)C(=O)C(OC(=O)Cc1n[nH]c(=O)c2ccccc12)c1ccccc1 (stereo not given)	x	0.7
85	CN(C)S(=O)(=O)c1cccc(COC(=O)c2cccnc2N)c1	x	0.3
86	O=C(c1ccc(F)cc1)c1c[nH]c(C(=O)NCc2cccs2)c1	-1.4	x
87	O=C(c1ccco1)N1CCN(C(=O)C2CCCN(S(=O)(=O)Cc3ccccc3)C2)CC1 (stereo not given)	-0.18	-1.8
88	COc1cccc(NCc2nnc(SCc3nc4ccccc4o3)n2C2CCCCC2)c1	x	0.0
89	COc1ccc(NC(=O)c2ccc3c(=O)n(Cc4ccco4)c(=S)[nH]c3c2)c(OC)c1	-0.021	-0.4
90	CN1CCC(N(Cc2ccco2)C(=O)c2cc3sccc3n2Cc2ccccc2)CC1	-0.22	1.6

A few values from the entries so far.
Reading of CN1CCC(N(Cc2ccco2)C(=O)c2cc3sccc3n2Cc2ccccc2)CC1 in KSHV LANA nucl: -0.22
Reading of O=C(c1ccc(Cl)cc1Cl)N1CCN(C(=O)C2CCCCC2)CC1 in BasE inh: 0.7
Reading of CC(C)CC(=O)NC(=S)Nc1ccc(NC(=O)c2ccco2)cc1 in BasE inh: 3.4

The listing continues:
No.	structure	KSHV LANA nucl	BasE inh
91	CC(=O)N(Cc1ccccc1)Cc1cc2ccccc2[nH]c1=O	-0.94	1.4
92	CCOC(=O)c1c(C)noc1-c1ccco1	x	1.4
93	O=C1C(=O)c2ccccc2C(O)=C1c1ccc(Cl)cc1	-0.14	3.2
94	CCCN(CCC)S(=O)(=O)c1ccc(C(=O)N2CCC(=O)c3ccccc32)cc1	2.7	-3.3
95	O=C(O)c1ccc(I)o1	-1.1	0.8
96	N#Cc1cccnc1Nc1ccc(Cl)c(Cl)c1	x	1.7
97	COC(=O)c1ccc(Nc2nnc(Cc3ccc(Cl)cc3)c(=O)[nH]2)cc1	-0.098	0.6
98	Nc1cc(Cl)ccc1C(=O)OC1CCOC1=O (stereo not given)	x	0.9
99	CCOc1ccc(-c2noc(-c3nnn(-c4ccccc4C(F)(F)F)c3N)n2)cc1	0.83	-5.2
100	CCOC(=O)c1c(-c2cccs2)csc1NC(=O)COC(=O)c1ccc(-n2cnnn2)cc1	x	1.4
101	Cc1ccc(C(=O)n2cnnc2N)cc1	0.11	1.8
102	S=c1[nH]nc(COc2ccc3c(c2)CCCC3)o1	x	-1.1
103	N#Cc1ccc(COC(=O)C2CC3C=CC2C3)cc1 (stereo not given)	x	1.8
104	CCc1ccc(C2C(C#N)=C(C)NC3=C2C(=O)CCC3)cc1 (stereo not given)	x	1.5
105	Cc1nnsc1C(=O)n1nccc1-c1cnn(-c2ccccc2)c1C	-0.29	2.5
106	O=C(O)CC1C(=O)N2CCNC2=C1C(=O)c1ccccc1 (stereo not given)	x	2.5
107	COC(=O)C1=C(O)/C(=C\c2cccs2)N=C1C	x	-1.2
108	CC(C)COC(=O)Nc1nnc(SCCOc2ccccc2)s1	-0.65	-1.4
109	COc1cc(CN2CCC3(CC2)Nc2ccccc2-n2cccc23)cc(OC)c1OC	-0.54	0.9
110	O=C1C(Sc2ncn[nH]2)=C/C(=N/S(=O)(=O)c2cccs2)c2ccccc21	-0.32	26
111	CSc1nsc(C)c1C#N	-0.59	x
112	CCCCN1C(=O)CN(C2CCCCC2)C(=O)C1c1ccc(OC)c(OC)c1 (stereo not given)	-0.15	0.1
113	CCc1cccc(NC(=O)c2ccc3c(=O)n4c(nc3c2)CCCCC4)c1	1.5	-8.8
114	O=c1c2ccccc2nc2c3ccccc3c(N3CCCCCC3)nn12	-0.28	3.2
115	CC(C)c1ccc(N2C(=O)C=CC2=O)cc1	-0.58	3.0
116	CCC(=O)N=c1sc2cc(NC(C)=O)ccc2n1CCOC	-0.088	0.9
117	COc1nccnc1NS(=O)(=O)c1ccc(NCc2ccccc2O)cc1	0.23	-0.5
118	O=C(O)c1cc(=O)[nH]c(-c2ccccc2)n1	-0.41	-0.3
119	CCn1c(CNC(=O)c2ccccc2)n[nH]c1=S	0.6	-1.9
120	CC(Oc1cccc(Cl)c1)C(=O)N1CCN(c2ncccn2)CC1 (stereo not given)	x	1.8
121	O=C(CSc1ncccn1)NCCC1=CCCCC1	2.8	-4.2
122	O=C(CCc1ccccc1)NNc1c(Cl)cncc1Cl	0.46	-0.4

Screens from PubChem BioAssay.
